PrP UTR inh = suppresses PrP 5' UTR mRNA reporter expression; cell-based PrP 5' UTR mRNA reporter, plate reader; inhibition, % (test concentration not listed); 340,000 compounds, 0.35% hits; AID 488862;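 active means every replicate at 50% or more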;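 further: 0 = median of the neutral control wells; tested in H4 reporter cells; numbers are from one replicate; inactives centre near -14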
Bead autofluor = flagged as autofluorescent in microsphere protease counterscreen; compound autofluorescence counterscreen, microsphere flow cytometry; active compounds read high; fluorescence intensity (no concentration beside the values); 360,000 compounds, 3.1% hits; AID 624483;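 active means at least 3 SD above the mean of all compounds, about 16000 in these data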;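 further: 100 nL of 1 mM stock went into each well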
ugtP null kill = compounds lethal to S. aureus RN4220 ugtP deletion mutant | OD600 growth, 16 h; some inactives read as strong as hits | growth inhibition, % (no concentration beside the values) | 330,000 compounds, 0.54% hits | AID 1259309;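 active means z-score under -3 and OD600 up to 0.15 on both plates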;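 further: plate controls were untreated wells for no effect and antibiotic for full effect; wells of about 80 µL received 100 nL stock; the first replicate is given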
Sa RN4220 lethal = kills Staphylococcus aureus RN4220 | 330,000 compounds, 0.33% hits | AID 1259311 | inhibition, % (no concentration beside the values) | S. aureus RN4220 growth, OD600, 16 h;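 active means z-score of -3 or lower and OD600 up to 0.18 on both plates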;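 further: plate controls were untreated cells for no effect and reference antibiotic for full effect; stock transfer was 100 nL into about 80 µL; one replicate is shown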
BJeLR viability = BJeLR cell viability loss; BJeLR (HRASV12) viability, CellTiter-Glo ATP luminescence, 48 h; reference of the scale not given here; inhibition, % (test concentration not listed); 300,000 compounds, 0.17% hits;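 active means replicate mean above 50%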;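 further: 50 nL library stock added to about 25 µL; numbers are from one replicate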
Mtb hypoxia inh = Mtb hypoxia fluorescent reporter inhibition | M. tuberculosis hypoxia-regulated fluorescent reporter, fluorescence | fluorescence inhibition, % (test concentration not listed) | 300,000 compounds, 0.1% hits;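 active means 35 to 45% if threefold the growth effect, above 45% if 1.5-fold the growth effect; inactive means the rest, general growth blockers included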;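 further: wells of about 50 µL received 100 nL stock; 0% = vehicle wells and 100% = reference inhibitor wells; whole bacteria with a GFP reporter of the hypoxia response; strong numbers were not always called active; many hits fall short of the cut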
Mtb hypoxia inh growth = further read-out of Mtb hypoxia inh, marked with its call; growth inhibition, %; measured here: M. tuberculosis growth (absorbance);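 0% = vehicle and 100% = reference antibiotic; read after six days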
Starred values were filed as active, the others as inactive. An unsorted share of the library; overall some 4% were active at least once.

Screening Cc1ccc(NC(=O)C(=O)NCC2CCCN2S(=O)(=O)c2cccs2)cc1 (centres undefined) returned PrP UTR inh -14, Bead autofluor 6999, ugtP null kill 10, Sa RN4220 lethal 3.3, BJeLR viability 7, Mtb hypoxia inh 8 and Mtb hypoxia inh growth 3.
S=c1[nH]nc(Cc2cccc3ccccc23)o1 was read as PrP UTR inh -24, Bead autofluor 2638, ugtP null kill -9, Sa RN4220 lethal 6.5, BJeLR viability 2, Mtb hypoxia inh 10 and Mtb hypoxia inh growth 6.
`Cc1nonc1NC(=O)CSc1nnnn1-c1ccccc1` gave PrP UTR inh -2, Bead autofluor 2886, ugtP null kill 7, Sa RN4220 lethal 0.3, BJeLR viability -4, Mtb hypoxia inh -5 and Mtb hypoxia inh growth 6.
O=C(NCc1ccccc1)C1=C[C@H](c2ccc(Br)cc2)C[C@H](OCCCCO)O1 was read as PrP UTR inh -21, Bead autofluor 4211 and BJeLR viability 9.
Screening COCCOC(=O)c1sc2nc[nH]c(=O)c2c1C returned PrP UTR inh -17, Bead autofluor 4579, ugtP null kill -4, Sa RN4220 lethal -1.1, BJeLR viability -15, Mtb hypoxia inh -5 and Mtb hypoxia inh growth 11.
`O=C(NCCN1CCOCC1)c1ccc(Cl)nc1` gave PrP UTR inh -10, Bead autofluor 3373, ugtP null kill 3, Sa RN4220 lethal 3.7, BJeLR viability 2, Mtb hypoxia inh 4 and Mtb hypoxia inh growth 8.
Cc1cc(CN2C(=O)c3ccccc3C2=O)no1 was read as PrP UTR inh 5, Bead autofluor 7803, ugtP null kill 1, Sa RN4220 lethal 1.1, BJeLR viability -10, Mtb hypoxia inh -1 and Mtb hypoxia inh growth -1.
`COc1cc(OC)c(C(=O)OCC(=O)NC2CCCCCCC2)cc1OC` gave PrP UTR inh 11, Bead autofluor 4119, ugtP null kill -4, Sa RN4220 lethal 6.8, Mtb hypoxia inh 15 and Mtb hypoxia inh growth 8.
`C#CC(C)(C)NC(=O)c1sccc1Oc1ccc(F)cc1[N+](=O)[O-]` gave PrP UTR inh -17, Bead autofluor 5004, ugtP null kill 10, Sa RN4220 lethal 1.1, BJeLR viability 1, Mtb hypoxia inh 9 and Mtb hypoxia inh growth 2.
`O=C(CSc1nc2cc(Cl)ccc2s1)N1CCCc2ccccc21` gave PrP UTR inh -71, Bead autofluor 6945, ugtP null kill 35, Sa RN4220 lethal 15, BJeLR viability 0, Mtb hypoxia inh 15 and Mtb hypoxia inh growth -5.
`CC(C)CC(=O)NCCCN1CCN(CCCNC(=O)CC(C)C)CC1` gave PrP UTR inh -19, Bead autofluor 4581, ugtP null kill 4, Sa RN4220 lethal 4.2, BJeLR viability -3, Mtb hypoxia inh 0 and Mtb hypoxia inh growth 0.
Screening CC(C)CCP(=O)(O)c1ccccc1 returned PrP UTR inh -20, Bead autofluor 22957*, ugtP null kill -6, Sa RN4220 lethal 7.7, Mtb hypoxia inh 15 and Mtb hypoxia inh growth 4.
For COc1cccc(C(=O)NCC(=O)N/N=C/c2cccnc2)c1 the results were PrP UTR inh -25, Bead autofluor 4493 and BJeLR viability 1.
`Cc1ccc(OCC(=O)N/N=C/c2ccc3c(c2)OCO3)cc1C` gave PrP UTR inh 0, Bead autofluor 4611 and BJeLR viability -1.
Screening COc1ccc(C2C3=C(CC(C)(C)CC3=O)Nc3cc4c(cc32)OCO4)cc1 (centres undefined) returned PrP UTR inh -50, Bead autofluor 2905, ugtP null kill 2, Sa RN4220 lethal -2.2, BJeLR viability 7, Mtb hypoxia inh 5 and Mtb hypoxia inh growth 8.
Screening COCCN(C(=O)CSc1nnc(Nc2ccc(C)cc2)s1)c1c(N)n(CC(C)C)c(=O)[nH]c1=O returned PrP UTR inh -38, Bead autofluor 4047, ugtP null kill 15, Sa RN4220 lethal 1.8, BJeLR viability -9, Mtb hypoxia inh 5 and Mtb hypoxia inh growth 13.
For O=C(CSc1ncn[nH]1)Nc1ccccc1-c1ccccc1 the results were PrP UTR inh -23, Bead autofluor 6683, ugtP null kill 9, Sa RN4220 lethal 4.5, BJeLR viability -2, Mtb hypoxia inh 9 and Mtb hypoxia inh growth 12.
Screening CCCCN(C(=O)c1cccs1)c1c(N)n(Cc2ccccc2)c(=O)[nH]c1=O returned PrP UTR inh -43, Bead autofluor 3896, ugtP null kill -1, Sa RN4220 lethal 3.7, Mtb hypoxia inh 16 and Mtb hypoxia inh growth 6.
Screening CCC(=O)c1ccc(OCC(=O)NC2(C#N)CCCCC2)cc1 returned PrP UTR inh -11, Bead autofluor 4486, ugtP null kill 1, Sa RN4220 lethal 1.3, Mtb hypoxia inh 6 and Mtb hypoxia inh growth -1.
`COC(=O)c1cc(C(C)=O)n2ccccc12` gave PrP UTR inh -16, Bead autofluor 2384, ugtP null kill -8, Sa RN4220 lethal 1.7 and BJeLR viability 2.
Screening O=C(Nc1ccc(O)cc1)c1ccc2c(c1)C(=O)N(Cc1cccnc1)C2=O returned PrP UTR inh 5, Bead autofluor 5573, ugtP null kill -8, Sa RN4220 lethal -1.0, BJeLR viability 3, Mtb hypoxia inh -8 and Mtb hypoxia inh growth 1.
`COC(=O)CNS(=O)(=O)c1ccc(Cc2ccc(S(=O)(=O)NCC(=O)OC)cc2)cc1` gave PrP UTR inh -8, Bead autofluor 10910, ugtP null kill 5, Sa RN4220 lethal 5.0, BJeLR viability -9, Mtb hypoxia inh -1 and Mtb hypoxia inh growth -4.
`N/N=C(\c1ccccc1)c1cc(Br)ccc1N` gave PrP UTR inh -33, Bead autofluor 3878 and BJeLR viability -8.
`O=C(Nc1ccccc1)c1ccc(S(=O)(=O)NCc2ccco2)cc1` gave PrP UTR inh -18, Bead autofluor 4808, ugtP null kill -4, Sa RN4220 lethal -1.9 and BJeLR viability -2.

Overlap with the part before: two compounds, then new ones.
`N/N=C(\c1ccccc1)c1cc(Br)ccc1N` gave PrP UTR inh -33, Bead autofluor 3878 and BJeLR viability -8.
`O=C(Nc1ccccc1)c1ccc(S(=O)(=O)NCc2ccco2)cc1` gave PrP UTR inh -18, Bead autofluor 4808, ugtP null kill -4, Sa RN4220 lethal -1.9 and BJeLR viability -2.
Screening COc1ccc(-n2nc(C(=O)NCC(=O)NC3CCCCC3)c3ccccc3c2=O)c(OC)c1 returned PrP UTR inh -32, Bead autofluor 5276, ugtP null kill 3, Sa RN4220 lethal 4.1, BJeLR viability 13, Mtb hypoxia inh 13 and Mtb hypoxia inh growth 17.
Screening CC(=O)Nc1ccc(C(=O)NN2C(=O)NC3(CCCCC3)C2=O)cc1 returned PrP UTR inh -1, Bead autofluor 6001, ugtP null kill 2, Sa RN4220 lethal 2.4, BJeLR viability 2, Mtb hypoxia inh 6 and Mtb hypoxia inh growth 1.
Screening Cc1ccc(/C(N)=N/OC(=O)c2cccc(F)c2)cc1 returned PrP UTR inh -64, Bead autofluor 11021, ugtP null kill 7, Sa RN4220 lethal 1.1, BJeLR viability 1, Mtb hypoxia inh 1 and Mtb hypoxia inh growth 2.
For CCOc1ccc(-n2c(SCC(=O)N3CCC(C(=O)O)CC3)nc3ccccc3c2=O)cc1 the results were PrP UTR inh -9, Bead autofluor 5118, ugtP null kill 10, Sa RN4220 lethal -2.6, BJeLR viability -5, Mtb hypoxia inh 10 and Mtb hypoxia inh growth 9.
For CCc1nnc(NC(=O)CSc2nnc(-c3ccoc3C)n2CC(C)C)s1 the results were PrP UTR inh -16, Bead autofluor 2849, ugtP null kill 7, Sa RN4220 lethal 11, BJeLR viability 3, Mtb hypoxia inh 5 and Mtb hypoxia inh growth 10.
For CC(C)(C)c1ccc(OC2=CS(=O)(=O)c3ccccc32)cc1 the results were PrP UTR inh -61, Bead autofluor 4272, ugtP null kill 42, Sa RN4220 lethal -1.5, BJeLR viability 0, Mtb hypoxia inh 0 and Mtb hypoxia inh growth 8.
`N#Cc1ccc(OCC(=O)NCCN2CCOCC2)cc1` gave PrP UTR inh -68, Bead autofluor 3648, ugtP null kill 10, Sa RN4220 lethal 6.2, Mtb hypoxia inh 6 and Mtb hypoxia inh growth -6.
For O=C(CSCc1ccccc1Br)NN=Cc1ccc2c(c1)OCO2 the results were ugtP null kill -1, Sa RN4220 lethal -4.2, Mtb hypoxia inh 1 and Mtb hypoxia inh growth 0.
COc1cc(C2C(C#N)=C(N)Oc3n[nH]c(-c4ccccn4)c32)cc(OC)c1OC (centres undefined) was read as PrP UTR inh -33, Bead autofluor 22654*, ugtP null kill -2, Sa RN4220 lethal 4.1, BJeLR viability 0, Mtb hypoxia inh 6 and Mtb hypoxia inh growth 6.
c1ccc(Sc2ccccn2)cc1 was read as Bead autofluor 3922, ugtP null kill 6, Sa RN4220 lethal 4.6, BJeLR viability -4, Mtb hypoxia inh 7 and Mtb hypoxia inh growth -13.
For COC(=O)c1c(N)sc2c1CC(C)(C)OC2 the results were PrP UTR inh -7, Bead autofluor 3724, ugtP null kill -66, Sa RN4220 lethal 9.8, BJeLR viability -2, Mtb hypoxia inh 1 and Mtb hypoxia inh growth 9.
For CC(NC(=O)COc1ccc(/C=N/NS(=O)(=O)c2ccccc2)cc1)c1ccccc1 (centres undefined) the results were PrP UTR inh -2, Bead autofluor 3009 and BJeLR viability 4.

Looked up by structure from the entries so far (two):
For O=C(CSc1ncn[nH]1)Nc1ccccc1-c1ccccc1 the results were PrP UTR inh -23, Bead autofluor 6683, ugtP null kill 9, Sa RN4220 lethal 4.5, BJeLR viability -2, Mtb hypoxia inh 9 and Mtb hypoxia inh growth 12.
Screening CC(=O)Nc1ccc(C(=O)NN2C(=O)NC3(CCCCC3)C2=O)cc1 returned PrP UTR inh -1, Bead autofluor 6001, ugtP null kill 2, Sa RN4220 lethal 2.4, BJeLR viability 2, Mtb hypoxia inh 6 and Mtb hypoxia inh growth 1.

Molecules above containing bromine (three):
O=C(NCc1ccccc1)C1=C[C@H](c2ccc(Br)cc2)C[C@H](OCCCCO)O1 was read as PrP UTR inh -21, Bead autofluor 4211 and BJeLR viability 9.
`N/N=C(\c1ccccc1)c1cc(Br)ccc1N` gave PrP UTR inh -33, Bead autofluor 3878 and BJeLR viability -8.
For O=C(CSCc1ccccc1Br)NN=Cc1ccc2c(c1)OCO2 the results were ugtP null kill -1, Sa RN4220 lethal -4.2, Mtb hypoxia inh 1 and Mtb hypoxia inh growth 0.

(more compounds)
CCN1C(=NCC(C)C)NC(c2cccc(F)c2)C(C(=O)OC)=C1C (centres undefined) was read as ugtP null kill -4, Sa RN4220 lethal -0.7, Mtb hypoxia inh -1 and Mtb hypoxia inh growth 16.
Screening COc1ccc(CN(CC2CCC(C(=O)O)CC2)C(=S)Nc2cccc(C)c2)cc1 (centres undefined) returned PrP UTR inh -21, Bead autofluor 4587, ugtP null kill 2, Sa RN4220 lethal 8.1, BJeLR viability 2, Mtb hypoxia inh 1 and Mtb hypoxia inh growth 10.
Screening CCC(=O)OC1CSc2nc3ccccc3n2C1 (centres undefined) returned PrP UTR inh -25, Bead autofluor 7726, ugtP null kill 3, Sa RN4220 lethal 2.8, BJeLR viability -5, Mtb hypoxia inh -3 and Mtb hypoxia inh growth 7.
For Cc1occc1C(=O)N/N=C/C=C/c1ccc(N(C)C)cc1 the results were PrP UTR inh -42, Bead autofluor 5903 and BJeLR viability -6.
